Anthrax LT inh: qHTS Assay for Anthrax Lethal Toxin Internalization. 70,000 compounds, 0.67% hits. Cells, anthrax lethal toxin internalization, FRET ratio (460/530). Potency, µM (titrated, usually from 40 µM), inactives show at the highest dose activity change, negative = inhibition, actives largely listed as inhibitors; active = well fitted falling ratio curve with the 530 nm signal flat; inconclusive = other ratio curves, or a change in one channel alone; inactive = flat curves in the ratio and both channels; the % refers to the ratio; note: % is set by controls: 0 for no effect and ±100 for the full control effect; nearly all actives have a fitted effect of over 50% in size; tested in ME-180 cells; beta-lactamase reporter
Prx2 Sm inh: Schistosoma Mansoni Peroxiredoxins (Prx2) | S. mansoni Prx2 activity coupled to TGR/GSH (TGR is thioredoxin glutathione reductase), NADPH fluorescence loss, qHTS; some inactives read as strong as hits | Potency, µM | 65,000 compounds, 0.07% hits | AID 448, 2006; active means full or partial inhibition curve with a strong effect at the top dose; inconclusive means weaker partial or single-point curve; inactive means no accepted curve; note: series up to 57 µM; many of its hits are not listed in these tables
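Purified S. mansoni TGR and Prx2 in pH 7.4 phosphate buffer with EDTA and Tween-20 were preincubated with compounds for 15 min. Further NADPH/GSH was added, then a 2.5 mM H2O2 aliquot initiated turnover, followed kinetically by NADPH fluorescence.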
Starred values were filed as active, the others as inactive; ? = inconclusive; . = no result given; [ ] = dose if it differs, or a comment. Potency is the fitted concentration of half-maximal effect. Only part of the results is shown; count on the stated rates, not on these rows.

Preview, 13 compounds:
SMILES | Anthrax LT inh | Prx2 Sm inh
CC(C)CNS(=O)(=O)c1ccc(CCC(=O)N2CCOCC2)cc1 | 12% | >57
O=C(CN1C(=O)c2ccccc2S1(=O)=O)NC1CCCCCC1 | 0% | >57
CCSc1nc(N2CCOCC2)c2ccccc2n1 | ? | >57
O=C(Nc1ccc(N2CCOCC2)cc1)c1ccc2nc(-c3ccco3)c(-c3ccco3)nc2c1 | -3% | >57
Cc1cc(NC(=O)CCS(=O)(=O)c2nc(-c3ccccc3)cc(C(F)(F)F)n2)no1 | 7.9µM* | >57
COc1ccc(C2C(C(=O)N3CCOCC3)c3ccccc3C(=O)N2c2ccc(OC)cc2)cc1 (centres undefined) | 7% | >57
COc1cccc(C2CC(c3ccc(F)cc3)Nc3nc(N)nn32)c1 (centres undefined) | -1% | >57
Cc1ccc(-n2c(Cc3cccn3C)nnc2SCC(=O)NCc2ccc3c(c2)OCO3)cc1 | 7% | >57
CC(=O)O[C@H]1CC[C@@]2(C)C(=CC[C@@H]3[C@H]4CC[C@@H]([C@H](C)C(=O)O)[C@]4(C)CC[C@H]32)C1 | -1%[8 µM] | >57
COc1ccc2c(c1)c1nnc(SCC(=O)N3C(C)CCCC3C)nc1n2C (centres undefined) | -9% | >57
CCOC(=O)C1CCCN(Cc2nc(N)nc(Nc3ccc(C)cc3)n2)C1 (centres undefined) | 10% | >57
CC(=O)OC[C@@H]1O[C@@H](O/N=C2/C[C@@H](O)[C@@H](O)[C@@H]3[C@@H]4C(=O)N(Cc5ccc6c(c5)OCO6)C(=O)[C@H]4CC[C@@H]23)[C@H](OC(C)=O)[C@H](OC(C)=O)[C@@H]1OC(C)=O | -6%[1.6 µM] | .
CCOc1ccc(OC(=O)c2cccnc2)cc1 | 11% | >57

The list itself, repeating the preview:
SMILES | Anthrax LT inh | Prx2 Sm inh
CC(C)CNS(=O)(=O)c1ccc(CCC(=O)N2CCOCC2)cc1 | 12% | >57
O=C(CN1C(=O)c2ccccc2S1(=O)=O)NC1CCCCCC1 | 0% | >57
CCSc1nc(N2CCOCC2)c2ccccc2n1 | ? | >57
O=C(Nc1ccc(N2CCOCC2)cc1)c1ccc2nc(-c3ccco3)c(-c3ccco3)nc2c1 | -3% | >57
Cc1cc(NC(=O)CCS(=O)(=O)c2nc(-c3ccccc3)cc(C(F)(F)F)n2)no1 | 7.9µM* | >57
COc1ccc(C2C(C(=O)N3CCOCC3)c3ccccc3C(=O)N2c2ccc(OC)cc2)cc1 (centres undefined) | 7% | >57
COc1cccc(C2CC(c3ccc(F)cc3)Nc3nc(N)nn32)c1 (centres undefined) | -1% | >57
Cc1ccc(-n2c(Cc3cccn3C)nnc2SCC(=O)NCc2ccc3c(c2)OCO3)cc1 | 7% | >57
CC(=O)O[C@H]1CC[C@@]2(C)C(=CC[C@@H]3[C@H]4CC[C@@H]([C@H](C)C(=O)O)[C@]4(C)CC[C@H]32)C1 | -1%[8 µM] | >57
COc1ccc2c(c1)c1nnc(SCC(=O)N3C(C)CCCC3C)nc1n2C (centres undefined) | -9% | >57
CCOC(=O)C1CCCN(Cc2nc(N)nc(Nc3ccc(C)cc3)n2)C1 (centres undefined) | 10% | >57
CC(=O)OC[C@@H]1O[C@@H](O/N=C2/C[C@@H](O)[C@@H](O)[C@@H]3[C@@H]4C(=O)N(Cc5ccc6c(c5)OCO6)C(=O)[C@H]4CC[C@@H]23)[C@H](OC(C)=O)[C@H](OC(C)=O)[C@@H]1OC(C)=O | -6%[1.6 µM] | .
CCOc1ccc(OC(=O)c2cccnc2)cc1 | 11% | >57
CSc1ncnc2c1ncn2[C@@H]1O[C@@H](CO)[C@H](O)O[C@@H]1O | ? | >57
O=C(NCc1ccccn1)[C@H]1C[C@@H]1[C@H](NP(=O)(c1ccccc1)c1ccccc1)c1ccccc1 | 7% | >57
Cc1[nH]nc2c1C1(C(=O)N(Cc3ccc(Cl)cc3)c3ccccc31)C(C#N)=C(N)O2 (centres undefined) | ? | >57
CN(C)Cc1ccccc1-c1cncnc1NC1CC1 | ? | >57
COC(=O)C(CCSC)NC(=O)CNC(=O)C1CCCCC1 (centres undefined) | ? | >57
C/C(N)=C(/C#N)C(=O)CSc1nnc(SCc2ccc(Cl)cc2)s1 | -16% | >57
Cn1cnc2c(NC3CCCC3)ncnc21 | ? | >57
O=C(NC1(C(F)(F)F)C(=O)Nc2c1c(=O)[nH]c(=O)n2Cc1ccco1)C1CC1 (centres undefined) | -8% | >57
COC(=O)COc1ccc(S(=O)(=O)NCc2cccnc2)cc1C | -19% | >57
Cc1cc(C)n(-c2nc3ccccc3nc2N2CCN(C(=O)c3ccc(Cl)cc3)CC2)n1 | ? | >57
COc1ccc2cc(C(=O)N3CCCCCC3)sc(=O)c2c1OC | 7% | >57
CC1(C)CC(=O)C(C(c2cccc(O)c2O)C2C(=O)CC(C)(C)CC2=O)C(=O)C1 | -6%[8 µM] | >57
CNc1ncnc2ccc(-c3ccccc3C)cc12 | 17% | >57
CC(=O)NCCOc1cccc(OCCNC(C)=O)c1 | . | >57
Cn1c(=O)[nH]c(=O)c2c1nc(NCCCO)n2CCCc1ccccc1 | 16% | >57
O=C(Nc1ccc(NC(=O)C2CCCN2C(=O)OCc2ccccc2)cc1)c1ccco1 (centres undefined) | -4% | >57
CC(C)C1CC(=O)NC(SCC(=O)Nc2ccc(Br)cc2)=C1C#N (centres undefined) | -29% | >57
O=C(CN(c1ccc(F)cc1)S(=O)(=O)c1ccc2c(c1)OCCO2)Nc1cccnc1 | 19% | >57
COc1ccc(-n2c(=O)cnc3cnc(N4CCN(C)CC4)nc32)cc1 | -5% | >57
O=C(c1cnccn1)N1CCC2(CC1)CN(c1cccc(-c3ccccc3)c1)C2 | -11% | >57
O=C(CSc1ccccc1)Nc1ccccc1N1CCOCC1 | -17% | >57
Cc1ccc(S(=O)(=O)N2CCN(C(=O)N3CCOCC3)C2C(C)C)cc1 (centres undefined) | -7% | >57
CCOc1ccccc1C(=O)N(Cc1ccco1)C1CCS(=O)(=O)C1 (centres undefined) | 7% | >57
CC(C)NC(=O)N1CCCC2(CCN(C(=O)c3ccncc3)CC2)C1 | -1% | >57
O=C1C2CCCN2C(c2ccc(F)c(F)c2)N1c1cccc(Cl)c1 (centres undefined) | -15% | >57
COCCN(CCOC)S(=O)(=O)c1ccc(C(=O)NC2CCN(Cc3ccccc3)CC2)cc1 | -13% | >57
C=C1CC[C@@H](O)C/C1=C/C=C1\CCC[C@]2(C)[C@@H]1CC[C@H]2[C@@H](C)/C=C\[C@@H](C)C(C)C | ? | >57
CCOC(=O)CCCCC(=O)c1[nH]c(=O)[nH]c1Cn1cnc2ccccc21 | 6% | >57
Cc1nn(CCCC(=O)N2CCc3ccccc3C2)c(=O)c2cc3sccc3n12 | -3% | >57
Cc1nc(SC2CC(=O)N(c3ccccc3)C2=O)nc2c1CCCC2 (centres undefined) | 2% | >57
c1ccc2cc3[nH]c(CN4CCCCC4)nc3cc2c1 | -2% | >57
COc1ccc(CCNc2oc(-c3ccccc3OC)nc2C#N)cc1 | 11% | .
CCc1nnc(NC(=O)CSc2nc(-c3ccc(OC)cc3)ns2)s1 | 27% | >57
O=C(CCN1CCOCC1)Nc1c(-c2ccccc2)c2cc(Br)ccc2[nH]c1=O | 0% | .
Cn1c(SC2=CS(=O)(=O)c3ccccc32)nc2ccccc21 | ? | >57
O=C(c1ccc(COc2ccccc2Cl)o1)N1CCN(c2ccccc2)CC1 | ? | >57
OCCN1CCN(CC#CCn2c3ccccc3c3ccccc32)CC1 | -11% | >57
Next part:
SMILES | Anthrax LT inh | Prx2 Sm inh
COc1cc(-c2nnc(-c3ccc(N4CCOCC4)cc3)o2)cc(OC)c1OC | 3% | >57
CCOC(=O)c1sc2cccc(F)c2c1N | -1% | >57
COc1ccc(C2C(C(=O)Nc3cc(C)on3)c3ccccc3C(=O)N2C)cc1 (centres undefined) | -1% | >57
CCN(C1CCCCC1)S(=O)(=O)c1ccc(S(=O)(=O)NCc2ccncc2)cc1 | -13% | >57
CS(=O)(=O)Nc1cccc(-c2ccc3ncnc(Nc4ccccc4)c3c2)c1 | ? | >57
O=C(Nc1nccs1)C1CCCN(S(=O)(=O)c2cccc3cccnc23)C1 (centres undefined) | ? | >57
O=C1C(=O)N(CCCn2ccnc2)C(c2cccnc2)/C1=C(/O)c1ccc(Br)cc1 (centres undefined) | -9% | >57
CCCCN1CCC(CCC(=O)c2cc(Cl)c(N)cc2OC)CC1 | ? | >57
O=C(COC(=O)Cc1cccs1)Nc1ccccc1 | 6% | >57
CCC1(c2ccc(F)cc2)NC(=O)N(CC(=O)N2CCOCC2)C1=O (centres undefined) | ? | >57
CS(=O)(=O)N1CCN(C(=O)c2ccccc2)C1 | -8% | >57
CN(CCCn1c(=S)[nH]c2ncccc2c1=O)Cc1ccccc1 | -10% | >57
N=C(N)N1CCc2ccccc2C1 | -3%[3.58 µM] | >57
COc1cc(Nc2cc(C)nc3nc(C)nn23)cc(OC)c1OC | -3% | >57
CCCc1nc2ccccc2c2nc(N)nn12 | 4% | >57
C=CCn1c(Cc2ccc(OCC)cc2)nnc1SCC(N)=O | 12% | >57
Cc1ccc(S(=O)(=O)N2CCN(C(=O)c3c(C)nn(-c4ccccc4)c3Cl)CC2)cc1 | 2% | >57
O=C(O)C1CCC(CNc2c(NC3CCCCC3)c(=O)c2=O)CC1 (centres undefined) | 4% | >57
Nc1cc(C(F)(F)F)ccc1C(=O)O | -11% | >57
Cc1ccc2c(c1)NC(=O)C(CC(=O)NCCN(C)C)O2 (centres undefined) | -1% | >57
CC(C)(C)c1ccc(S(=O)(=O)N2CCCCC2C(=O)NCc2ccccn2)cc1 (centres undefined) | -14% | >57
Cn1c(SCC(=O)c2ccc3c(c2)OCO3)nnc1-c1ccccn1 | -6% | >57
CC(C)n1nnnc1SCC(=O)Nc1ccccc1N1CCOCC1 | 19% | >57
COc1ccc(C2N(c3cccc(Cl)c3)C(=O)C3CCCN32)cc1 (centres undefined) | 7% | >57
Cc1cc(C(=O)Nc2sc3c(c2C#N)CCCCC3)cs1 | ? | >57
CCCCCCCC/C=C\CCCCCCCC(=O)NCc1ccc(O)c(OC)c1 | ? | >57
CCN1CCCCC(=N/O)/C(=N/O)CCCC1 | -8%[8 µM] | >57
CC1CCN(C(=O)C2CCCN(S(C)(=O)=O)C2)CC1 (centres undefined) | 3% | >57
CCOC(=O)C(CCSC)NC(=O)CN (centres undefined) | 14% | >57
CC1(C)CC(n2[nH]c(=O)c3c2NC(=O)CSC3c2ccc(F)cc2)CCO1 (centres undefined) | . | >57
CCCC(=O)Nc1ccc2c(c1)nc1n2CCSC1 | ? | >57
COc1ccc(C2CC(c3ccc(Cl)cc3Cl)n3nc(N)nc3N2)cc1 (centres undefined) | 14% | >57
Cc1cc(-c2csc(N)n2)c(C)n1CCc1ccccc1 | -25% | >57
Cc1cc(C)nc(-n2nc(C)cc2NC(=O)c2ccc(Br)o2)n1 | -23% | >57
Cc1ccc(C)c(NS(=O)(=O)c2ccc(OCC(=O)N3CCOCC3)cc2)c1 | -3% | >57
CCCNC(=O)OC[C@@H]1O[C@H](CCO/N=C(\C)CCN2CCCCc3nc(C)c(C)cc32)C=C[C@@H]1Oc1ccc(OC)cc1 | -11%[1.6 µM] | .
COc1cccc(Cn2nnc(C(=O)NCc3ccc(F)cc3)c2N)c1 | -12% | >57
COc1ccc(CCN2C(=O)C(O)=C(C(=O)c3ccco3)C2c2cccs2)cc1OC (centres undefined) | 7% | >57
O=C(CN1CCC(c2nc3ccccc3[nH]2)CC1)NCc1ccc2c(c1)OCO2 | -13% | >57
Cn1c(N)c(C(=O)COC(=O)CCC(=O)c2cccs2)c(=O)n(C)c1=O | 0% | >57
COCCn1c(=O)c(-c2cccs2)nc2cnc(N(C)C)nc21 | ? | >57
CS(=O)(=O)N1CCC[C@@]2(CCN(C(c3ccccc3)c3ccccc3)C2)C1 | 3% | >57
CC(C)Cn1cc(C(=O)NCC2CCCO2)c2c3ccccc3n(C)c2c1=O (centres undefined) | 9% | >57
CCCN(Cc1ccccc1)S(=O)(=O)c1ccc(N2C(=O)CCC2=O)cc1 | -7% | >57
CCOc1ccccc1Oc1c(C)oc2c(CN3CCN(CCO)CC3)c(O)ccc2c1=O | 7% | >57
O=C(NCc1ccccn1)c1ccc(/C=N/O)nc1 | -5% | >57
COCc1nc2ccccc2n1Cc1ccccc1 | 2% | >57
C=C(C)C1CC=C(C)C(OC(C)=O)C1 (centres undefined) | -3% | .
O=C(COC(=O)c1ccccc1Oc1ccccc1)NCc1ccco1 | 0% | >57
CO[C@@H](C)[C@](O)(C(=O)OCC1=CCN2CC[C@@H](O)[C@H]12)C(C)C | -7%[3.58 µM] | >57
Remaining list, next part:
SMILES | Anthrax LT inh | Prx2 Sm inh
Cc1cc2c(=O)n(CC(=O)NCC(=O)N3CCN(Cc4ccccc4)CC3)cnc2s1 | -14% | >57
CCn1c(C(=O)OC)cc2c1ccn2-c1ccc(F)cc1 | -22% | >57
Cn1c(=O)cc(OCC(=O)N2CCN(Cc3ccc4c(c3)OCO4)CC2)c2ccccc21 | 7% | >57
Cc1ccsc1C(=O)Nc1ccc(C(=O)O)cc1 | 8% | >57
CCc1ccc(NC(=O)CN(c2ccc3c(c2)OCO3)S(=O)(=O)c2c(C)noc2C)cc1 | ? | >57
C(#CCN1CCOCC1)COC/C=C/c1ccccc1 | -5% | >57
CCOc1ccc(-n2nc(C(=O)N3CCOCC3)c3ccccc3c2=O)cc1 | 3% | >57
